PKD1 kinase inh = inhibitors of human PKD1 kinase; PKD1 kinase fluorescence polarization assay; Q15139; AID 797; inhibition, %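 (about 10 µM by stock and volumes)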; 0.056% of 200,000 active;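 active means inhibition of 50% or more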;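 further: controls were vehicle for no effect and a reference inhibitor for full effect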
RGS16-Gao HTS = RGS16-Galphao interaction regulator (human); O15492+P09471; bead-based flow cytometry RGS16-Galphao binding, fluorescence; actives lie on both sides; binding response (% of control), % at 10 µM; 0.38% of 220,000 active;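 active means below 25% or above 175%, edge rows of some plates excepted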;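 further: Galphao activated by GDP with aluminum fluoride before binding; 100% = wells without compound and 0% = beads without RGS; some results beyond the cut were filed as inactive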
Target sequence (O15492 whole entry, looked up): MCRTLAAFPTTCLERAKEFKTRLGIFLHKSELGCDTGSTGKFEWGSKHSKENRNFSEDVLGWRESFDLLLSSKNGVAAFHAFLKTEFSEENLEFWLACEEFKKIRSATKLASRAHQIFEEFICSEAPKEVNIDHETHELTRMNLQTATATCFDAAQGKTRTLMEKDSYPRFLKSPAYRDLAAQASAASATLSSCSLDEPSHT
Target sequence (P09471 whole entry, looked up): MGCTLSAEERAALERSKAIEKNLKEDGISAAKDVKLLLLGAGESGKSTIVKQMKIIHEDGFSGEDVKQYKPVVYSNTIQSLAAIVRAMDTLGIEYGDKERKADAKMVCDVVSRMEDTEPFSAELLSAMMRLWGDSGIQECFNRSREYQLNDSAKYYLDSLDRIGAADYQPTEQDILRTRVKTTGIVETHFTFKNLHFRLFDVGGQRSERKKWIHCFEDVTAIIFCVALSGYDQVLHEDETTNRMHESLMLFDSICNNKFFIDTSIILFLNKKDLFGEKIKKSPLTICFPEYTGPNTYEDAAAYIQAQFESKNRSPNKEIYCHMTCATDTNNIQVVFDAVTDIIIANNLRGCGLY
GALR2 agonist = agonists of human galanin receptor 2 (GALR2). O43603. GALR2-expressing cells, agonist activation read-out. AID 803. 0.48% of 140,000 active. activation, %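 (tested at 5 µM)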;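 active means above mean plus 3 SD of all compounds, about 5% in these data, not always enough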;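 further: 0% = vehicle buffer wells and 100% = reference agonist at full effect; tested in CHO reporter cells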
Target sequence (O43603 whole entry, looked up): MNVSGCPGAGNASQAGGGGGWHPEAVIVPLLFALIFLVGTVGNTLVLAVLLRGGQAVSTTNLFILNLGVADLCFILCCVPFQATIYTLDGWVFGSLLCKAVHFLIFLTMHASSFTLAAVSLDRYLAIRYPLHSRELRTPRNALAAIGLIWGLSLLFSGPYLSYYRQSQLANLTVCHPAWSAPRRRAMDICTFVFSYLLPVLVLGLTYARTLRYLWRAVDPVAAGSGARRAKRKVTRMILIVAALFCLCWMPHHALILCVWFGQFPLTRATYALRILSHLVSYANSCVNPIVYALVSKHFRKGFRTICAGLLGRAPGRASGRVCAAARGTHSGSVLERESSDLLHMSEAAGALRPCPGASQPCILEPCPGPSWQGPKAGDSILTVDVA
HSV augment = increases HSV replication in cells. HSV replication augmentation in cells, fold increase. maximum fold increase. 0.005% of 220,000 active. AID 1956;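 active means peak rise of 1.5-fold or more in the series; inconclusive means self-fluorescent or not available for retest; tested in PC3 cells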;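 further: first round at 10 µM; read as green reporter fluorescence; hits show the peak of a series up to 25 µM; 1 = signal of infected wells without compound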
Insulin prom inh = TRM-6 insulin promoter activity inhibition | TRM-6 cells (human fetal islet line), insulin promoter-eGFP reporter, imaging; reporter expression induced with tamoxifen | inhibition, % at 2 µM | 0.9% of 130,000 active | AID 1273;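 active means inhibition above the mean plus 3 SD, with well images judged a real hit on visual review, cut at about 60% in these data, passing the limit was not always enough; inconclusive means inhibition over the cutoff but images rejected on review; inactive means inhibition not above the cutoff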
Insulin prom inh cell count = second read-out of Insulin prom inh, no call of its own (marks repeat the call); normalized cell count, %; measured here: cell count, toxicity; reference of the scale not given here;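 cells exposed to compound for 48 h; stained nuclei by imaging scaled within each plate; lower means fewer cells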
HSV augment primary fold = also measured in HSV augment; calls as there; fold increase; compound at 10 µM; measured here: primary screen fold increase 10 uM; tested in PC3 cells;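 GFP signal in the first replicate; 1 = infected wells without compound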
Starred values were filed as active, the others as inactive; i = inactive; ? = inconclusive; · = no result given.

SMILES	PKD1 kinase inh	RGS16-Gao HTS	GALR2 agonist	HSV augment	HSV augment primary fold	Insulin prom inh	Insulin prom inh cell count
CC(=O)NCCn1c(SCC(=O)c2ccccc2)nc2ccccc2c1=O	7	108	-0.1	i	0.9	6	48
CSc1ccccc1NC(=O)CN(C)CC(=O)Nc1ccccc1N1CCOCC1	2	103	·	i	0.92	38	79
Cc1cc(C(=O)NC(=S)Nc2ccccc2N2CCCC2)ccc1[N+](=O)[O-]	-7	94	0.3	i	0.97	·	·
COC(=O)c1ccccc1NC(=O)COc1ccccc1[N+](=O)[O-]	1	97	·	i	1	-25	127
O=C1CC(c2cccc(Cl)c2)C(n2cncn2)C(=O)C1C1NCCc2ccccc21 (stereo unspecified)	0	90	-1.7	i	1.1	7	133
CN(Cc1cccs1)C(=O)CCCc1c[nH]c2ccccc12	-6	100	·	i	1.1	·	·
S=C(Nc1ccc2nc(-c3ccccn3)c(-c3ccccn3)nc2c1)N1CCCCCC1	-7	92	·	?	·	·	·
O=C(CSc1nnnn1-c1cccc(Cl)c1)Nc1ccc2c(c1)CCC2	1	103	8.8*	i	0.89	·	·
Cn1c(=O)c2c(nc(SCc3cccnc3)n2Cc2ccccc2)n(C)c1=O	-5	103	1.6	i	1	36	151
CN(C)c1nc(N(C)C)nc(N(C#N)CN2C(=O)c3ccccc3C2=O)n1	1	101	0.4	i	0.96	·	·
COc1cc(Cl)c(C)cc1NC(=O)c1ccc2c(SCC(=O)O)c3c(nc2c1)CCCC3	-2	100	·	i	0.95	36	128
CCOC(=O)c1[nH]cnc1C(=O)Nc1ccccn1	2	100	-2.5	i	0.82	·	·
Cc1cccc(NC(=O)c2c(C)nn(-c3ccccc3)c2Cl)c1	-7	102	·	i	0.91	·	·
COc1ccccc1NS(=O)(=O)c1cccc(NC(=O)NC2CCCCC2)c1	-10	105	-0.9	i	1	·	·
COc1ccc(Cl)cc1C(=O)NNC(=O)c1cccc([N+](=O)[O-])c1	-4	97	·	i	0.83	·	·
BrC(=C\c1ccccc1)/C=N/N1CCN(c2ccccn2)CC1	-9	112	-2.6	i	0.93	-12	83
COc1ccc(-c2cc(C(=O)OCC(=O)N(C)C3CCS(=O)(=O)C3)c3ccccc3n2)cc1OC (stereo unspecified)	-8	102	·	i	0.99	-36	105
CC(=O)N/N=C/C1=CCC2CC1C2(C)C (stereo unspecified)	-8	100	·	i	0.98	·	·
CCOC(=O)NCc1ccc(S(=O)(=O)Nc2ccc(C)cc2)cc1	2	70	-2.7	i	0.8	0	83
Cc1nc2sc(-c3ccccc3)cc2c(=O)[nH]1	-1	101	-0.2	i	0.96	-29	99

An excerpt from above in order of their number in PKD1 kinase inh, high to low.
structure | PKD1 kinase inh | RGS16-Gao HTS | GALR2 agonist | HSV augment | HSV augment primary fold
Cc1nc2sc(-c3ccccc3)cc2c(=O)[nH]1 | -1 | 101 | -0.2 | i | 0.96
COc1ccc(Cl)cc1C(=O)NNC(=O)c1cccc([N+](=O)[O-])c1 | -4 | 97 | · | i | 0.83
COc1ccc(-c2cc(C(=O)OCC(=O)N(C)C3CCS(=O)(=O)C3)c3ccccc3n2)cc1OC (stereo unspecified) | -8 | 102 | · | i | 0.99

Later entries.
SMILES	PKD1 kinase inh	RGS16-Gao HTS	GALR2 agonist	HSV augment	HSV augment primary fold	Insulin prom inh	Insulin prom inh cell count
CCn1nc(C)c(CNCc2cn[nH]c2-c2cc3ccccc3o2)c1C	·	99	·	i	0.94	·	·
CC(=O)c1ccc(NC(=O)C(C)OC(=O)C(C)Oc2cccc(C)c2)cc1 (stereo unspecified)	4	114	-1.6	i	1.4	·	·
CSc1cnn(-c2ccccc2)c(=O)c1SC	2	101	-0.6	i	0.98	9	93
N#C/C(=C/c1ccc(F)cc1)C(N)=S	4	100	·	i	1	·	·
O=C(NC(=S)NCc1ccccc1)c1ccccc1F	2	92	-1.8	i	0.89	3	145
COc1ccc(S(=O)(=O)NCc2cc(-c3ccccc3Cl)no2)cc1	3	110	·	i	0.95	-164	86
CCOc1ccc(-n2ccnc2SCC(=O)N2CCCc3ccccc32)cc1	-7	107	-0.1	i	0.92	·	·
COc1cc(/C=C2/N=C(C3CCCCC3)OC2=O)cc(OC)c1OC	-1	93	-1.4	i	1.1	-7	115
Cc1ccc(OCC(=O)n2nc(C)cc2C)c(Br)c1	0	102	-0.9	i	1.1	-242	44
O=C(Nc1cccnc1)/C(N=Nc1c(Cl)cccc1Cl)=C(\O)c1ccccc1	1	77	1.1	i	1.1	-27	54
CCc1nnc(NC(=O)Cc2ccc(OC)c(OC)c2)s1	4	101	·	i	1.3	·	·
CCn1nc(C)c(/C=N/NC(=O)c2c[nH]c3ccccc23)c1C	7	56	-0.7	i	0.66	7	63
CC(C)NC(=O)C(=O)NCCCOC(C)C	1	92	-1.1	i	1	-175	121
COc1ccc(S(=O)(=O)NCCCCC(=O)O)cc1C(=O)O	-5	104	·	i	0.94	·	·
CCC(=O)Nc1cccc(C(=O)c2ccc(C)c(C)c2)c1	-3	102	·	i	0.84	·	·
S=C(NCc1ccc2[nH]c3c(c2c1)CCCC3)Nc1ccccc1Cl	-15	96	-0.1	i	0.78	12	106
O=S1(=O)CCN2C(Cc3ccc(SC(F)F)cc3)=CSC2=N1	-4	109	0.2	i	0.98	·	·
CCN(N=O)[C@@H](Cc1ccccc1)CN(N=O)[C@@H](Cc1ccccc1)CN(C)N=O	-3	21*	·	i	0.91	·	·
CC(C)(C)NC(=O)C(c1cccs1)N(CC1CCCO1)C(=O)c1ccc(-c2ccccc2)[nH]1 (stereo unspecified)	-1	101	-1.2	i	0.77	-30	111
COCCCNc1cc(C)nc2ccccc12	3	105	-1.8	i	0.97	26	152
CCOC(=O)Cn1c(=O)c2c(nc3n2CCS3)n(C)c1=O	5	100	-2.2	i	1	12	111
CCOc1ccc(NC(=O)C2CC(=O)N(C)C(=Nc3ccc4c(c3)OCO4)S2)cc1 (stereo unspecified)	11	102	-1.1	i	0.83	3	102
Cc1ccc(-c2nc(SCC(N)=O)c(C#N)c3c2CCCC3)cc1	1	103	-0.2	i	0.88	25	111
CC(=O)c1cc2c(cc1N/C(=N/S(=O)(=O)c1ccc(C)cc1)c1ccccc1)OCO2	-2	142	1.6	i	0.92	-23	152
Cc1ccc(SCc2cc(=O)n3[nH]c(C)nc3n2)cc1	0	93	-2.8	i	0.73	6	118
O=C(NCc1ccco1)c1cnc2sccn2c1=O	-3	107	-2.2	i	0.87	·	·
CC(=O)c1c(Nc2ccc3c(c2)OCCO3)oc(C)cc1=O	-6	101	-3.3	i	0.81	·	·
Cn1c(=O)c2c(ncn2CC(=O)N/N=C/c2c[nH]c3ccccc23)n(C)c1=O	·	100	·	i	1	·	·
COc1ccc(C)cc1NC(=O)CN(C)S(=O)(=O)c1cc(C)ccc1OC	-10	104	-0.9	i	0.93	-21	77
CN1C(=O)c2ccccc2Sc2ccc(NC(=O)NC3CC3)cc21	-1	105	-5.2	i	1	-9	85

Entries listed above shown as hits in GALR2 agonist:
molecule,PKD1 kinase inh,RGS16-Gao HTS,GALR2 agonist,HSV augment,HSV augment primary fold
O=C(CSc1nnnn1-c1cccc(Cl)c1)Nc1ccc2c(c1)CCC2,1,103,8.8*,i,0.89

Remaining list, next part:
SMILES	PKD1 kinase inh	RGS16-Gao HTS	GALR2 agonist	HSV augment	HSV augment primary fold	Insulin prom inh	Insulin prom inh cell count
CC(C)S(=O)(=O)C/C(N)=N/OC(=O)c1cc(Cl)cc(Cl)c1	·	101	·	i	0.98	·	·
CC[n+]1c(-c2ccccc2)csc1Nc1c(C)n(C)n(-c2ccccc2)c1=O	-2	48	-2.0	i	0.8	7	94
CC(=Nc1ccc2c(c1)nc(CO)n2C)C1=C(O)CC(C)(C)CC1=O	3	101	-2.6	i	0.87	·	·
COc1cc2c(cc1OC)CN(c1nc(CN3CCOCC3)nc3sc4c(c13)CCCC4)CC2	2	111	-1.2	i	0.91	23	98
CCN(CC)C(=O)Cn1c(=O)n(-c2ccccc2)c(=O)c2c3c(sc21)CCC3	0	101	2.0	i	0.86	·	·
CC(Oc1ccccc1)C(=O)N=Nc1c(O)[nH]c2ccc(Br)cc12 (stereo unspecified)	1	102	·	i	0.94	·	·
COc1ccc2oc(=O)c(C(=O)Nc3ccccc3-c3ccccc3)cc2c1	-12	103	·	i	1.1	·	·
O=C(O)c1ccc(Nc2nc3c(s2)CCCC3)cc1	-3	95	·	i	0.95	-18	89
CC1=NN(C(=O)CCc2ccccc2)C(O)(c2ccncc2)C1 (stereo unspecified)	-4	98	·	i	0.86	·	·
O=C(O)c1cnn(-c2nc(-c3cccc(F)c3)cs2)c1C(F)(F)F	-9	101	·	i	1.2	53	101
COc1ccc(N2CCN(C(=O)Cc3cccs3)CC2)cc1	-6	102	-2.1	i	0.97	50	77
CC(=O)CNc1ccc(S(=O)(=O)N/N=C/c2ccccc2)cc1	-3	94	·	i	0.66	·	·
COC(=O)C1(CCSC)NC(c2ccc(O)c(OC)c2)C2C(=O)N(c3ccc(C)cc3)C(=O)C21 (stereo unspecified)	-9	100	·	i	0.97	·	·
Cc1cccc(/C=N/n2c(C)cc(C)c(C#N)c2=O)c1	6	99	-1.6	i	0.85	50	130
S=C1NCN(CCc2ccccc2)CN1	·	100	·	i	0.97	·	·
O=C(CN1CCN(c2ccccn2)CC1)N1c2ccccc2Sc2ccc(C(F)(F)F)cc21	7	100	-1.7	i	0.87	38	90
Cc1cccc(OCC(O)Cn2c(=N)n(CCN3CCCCC3)c3ccccc32)c1 (stereo unspecified)	0	101	0.1	i	0.9	-100	113
CCOC(=O)C1(Cc2ccccc2C)CCCN(C(=O)c2ccnn2C)C1 (stereo unspecified)	-6	101	·	i	0.99	·	·
CCOc1ccc(NC(=O)c2cc3cc4ccc(OC)cc4nc3o2)cc1	0	98	-1.4	i	0.92	29	162
CCOCCCn1c(=N)c(C(N)=S)cc2c(=O)n3cccc(C)c3nc21	3	93	-0.4	i	0.92	-77	118
C=CCSc1nnc(-c2cccnc2)o1	3	106	-1.2	i	0.92	·	·
O=C(/C=C/c1ccc(-c2ccc(F)cc2)o1)N1CCCC1	-8	105	·	i	1	-9	118
COc1ccc(-c2cc(C(=O)NCc3ccc(Cl)cc3)no2)cc1OC	-5	103	-0.8	i	0.97	-48	88
COc1ccc(Cl)cc1NC(=S)Nc1cccc(C)c1	-3	109	·	i	1	·	·
O=C(CSc1ncn[nH]1)Nc1cc(S(=O)(=O)N2CCCC2)ccc1Cl	-5	93	·	i	0.89	·	·
COc1cccc(/C=N/NC(=O)c2ccc(N(C)S(=O)(=O)c3ccccc3)cc2)c1OC	12	105	·	i	0.99	27	164
Cc1cc([N+](=O)[O-])ccc1NC(=O)C(C)[n+]1ccccc1 (stereo unspecified)	-3	103	·	i	0.89	29	83
CC(C)N1CCC(NC(=O)NC2CCCCC2)CC1	-7	94	·	i	0.99	·	·
Cc1noc(/C=C/Nc2ccc(F)cc2F)c1[N+](=O)[O-]	0	114	·	i	0.89	-109	61
Cc1ccc(CN2CCN(CC3CC4C=CC3C4)CC2)cc1 (stereo unspecified)	-2	101	-1.8	·	·	·	·
CCOC(=O)C[n+]1c(C)sc2ccc(OC)cc21	0	55	-1.6	i	1	-33	96
O=C1CC(c2cccs2)CC2=C1C(c1ccccc1)n1ncnc1N2 (stereo unspecified)	-17	101	0.0	i	0.89	-493	37
COc1ccc(CC(=O)OCc2cc3ccc(C)cc3[nH]c2=O)cc1	-2	98	-1.8	i	1.1	14	102
Cc1ccc2c(c1)C=CC(C)(C)S2=O (stereo unspecified)	20	80	-0.9	i	1.1	21	71
CC(=O)Nc1nc(C)nc(-c2ccccc2OC(C)=O)n1	4	93	-2.7	i	0.99	0	92
Cc1ccc(-c2csc3nnc(SCc4csc(C)n4)n23)cc1	-14	108	-0.4	i	0.83	-53	62
CCO[C@H]1OC(C(=O)NC2CC2)=C[C@@H](c2csc3ccccc23)[C@@H]1CCCO	2	101	·	i	0.93	·	·
c1ccc(CSc2nnc3ccc(-c4ccncc4)nn23)nc1	1	98	·	i	0.82	·	·
COc1ccccc1NC(=O)CN1CCN(CC(=O)Nc2ccc3c(c2)OCO3)CC1	-3	348	-0.7	i	1	38	80
CCC(C)C(NC(=O)[C@@H](NC(=O)c1ccccc1F)C(C)C)C(=O)OC (stereo partly specified)	-2	99	-2.2	i	1	-32	133

Screening results from PubChem.
